# KCNQ2 enhance: enhances the rat KCNQ2 potassium channel; 0.54% of 310,000 active; CHO-K1 KCNQ2, FluxOR thallium flux fluorescence; hits give high values; B-score at 10 µM; O88943;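 active = fluorescence ratio B-score at least 3 SD of library B-scores, with initial fluorescence B-score within 3 SD, cut at about 5.3 in these data; same plate scores as AID 2156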;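 note: B-score of peak minus minimum over baseline fluorescence ratio after K+ and Tl+ stimulus; positive B-score means potentiation of KCNQ2 with more thallium influx and brighter signal; only the inactives scoring about 0 or higher are listed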
# Target sequence (O88943 whole entry, looked up): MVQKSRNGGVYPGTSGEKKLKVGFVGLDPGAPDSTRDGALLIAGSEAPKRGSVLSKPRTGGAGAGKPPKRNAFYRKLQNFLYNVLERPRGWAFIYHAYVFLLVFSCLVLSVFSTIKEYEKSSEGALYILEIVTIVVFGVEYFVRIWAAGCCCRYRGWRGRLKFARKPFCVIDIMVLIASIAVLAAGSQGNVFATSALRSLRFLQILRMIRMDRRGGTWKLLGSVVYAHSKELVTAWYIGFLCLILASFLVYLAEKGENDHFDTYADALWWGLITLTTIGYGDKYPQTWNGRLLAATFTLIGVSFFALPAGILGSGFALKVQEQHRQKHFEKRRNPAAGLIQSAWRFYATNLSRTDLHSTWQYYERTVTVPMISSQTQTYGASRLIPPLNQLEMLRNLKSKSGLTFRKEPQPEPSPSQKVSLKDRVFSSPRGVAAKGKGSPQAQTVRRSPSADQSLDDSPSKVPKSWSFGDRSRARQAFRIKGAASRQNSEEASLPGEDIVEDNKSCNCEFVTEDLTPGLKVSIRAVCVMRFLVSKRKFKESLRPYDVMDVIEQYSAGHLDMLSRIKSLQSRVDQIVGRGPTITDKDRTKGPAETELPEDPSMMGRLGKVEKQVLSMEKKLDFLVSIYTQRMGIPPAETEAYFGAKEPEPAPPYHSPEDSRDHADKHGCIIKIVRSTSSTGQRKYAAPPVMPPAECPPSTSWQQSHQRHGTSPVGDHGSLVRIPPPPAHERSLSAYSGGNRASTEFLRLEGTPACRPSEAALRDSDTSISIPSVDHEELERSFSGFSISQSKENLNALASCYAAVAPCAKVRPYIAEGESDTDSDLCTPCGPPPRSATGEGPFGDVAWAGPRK
# KCNQ2 enhance baseline: recorded beside KCNQ2 enhance, whose call it bears; B-score; compound at 10 µM; measured here: initial fluorescence intensity artifact check;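 brightness before thallium and not channel activity; 0 = typical well and far values either way flag optical interference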
# Numbers without * were called inactive. The list is partial. The share of hits here may be higher or lower than overall.
# The opening four entries as a preview:
KCNQ2 enhance | KCNQ2 enhance baseline | canonical_smiles
2 | 0.24 | COc1ccc(OCC(=O)NNC(=O)c2ccc3c(=O)n4c(nc3c2)CCC4)cc1
0.89 | -0.71 | C[C@@H]1C(=O)O[C@H]2[C@H]1CC[C@@]1(C)C(=O)C=C[C@@](C)(O)[C@H]21
0.67 | -1.5 | Cc1ccc(-c2[nH]ncc2/C=N/n2c(COc3ccccc3)nc3ccccc3c2=O)cc1
0.13 | -1.1 | COc1ccc(S(=O)(=O)N2CCC(C(=O)NC3(C)CCS(=O)(=O)C3)CC2)cc1OC (stereo not given)

# The listing, from the first entry:
KCNQ2 enhance | KCNQ2 enhance baseline | canonical_smiles
2 | 0.24 | COc1ccc(OCC(=O)NNC(=O)c2ccc3c(=O)n4c(nc3c2)CCC4)cc1
0.89 | -0.71 | C[C@@H]1C(=O)O[C@H]2[C@H]1CC[C@@]1(C)C(=O)C=C[C@@](C)(O)[C@H]21
0.67 | -1.5 | Cc1ccc(-c2[nH]ncc2/C=N/n2c(COc3ccccc3)nc3ccccc3c2=O)cc1
0.13 | -1.1 | COc1ccc(S(=O)(=O)N2CCC(C(=O)NC3(C)CCS(=O)(=O)C3)CC2)cc1OC (stereo not given)
0.44 | 0.28 | CS(=O)(=O)c1ccc(NC(=O)CN2C(=O)C3CCCCC3C2=O)cc1 (stereo not given)
1.1 | -0.78 | Cc1sc2nc(SCC(=O)NCCCO)n(-c3ccccc3)c(=O)c2c1C
1.6 | -1.5 | CC(C)C(C)(C#N)NC(=O)CSc1nc2scc(-c3ccccc3)c2c(=O)[nH]1 (stereo not given)
0.18 | 0.63 | CN(C)S(=O)(=O)c1ccc(NC(=S)NC(=O)Cc2ccccc2)cc1
0.07 | 0.98 | CCCCC1=CC2=CC(=O)C(C)(OC(=O)CC)C(=O)C2=CN1Cc1ccccc1 (stereo not given)
0.34 | 0.57 | Cc1cc2nc(C)c3c(n2n1)CCC3
0.49 | 1.1 | COC(=O)N/N=C/c1cn(CCOc2ccccc2)c2ccccc12
0.86 | 0.19 | COc1ccc(CCNC(=O)CCS(=O)(=O)c2ccc3c(c2)NC(=O)CS3)cc1OC
0.34 | 0.03 | CCOC(=O)/C=C/c1ccccc1S(=O)(=O)NC(C)(C)C
0.92 | -1.4 | COc1ccc2oc(=Nc3ccccc3)c(-c3nc4ccccc4[nH]3)cc2c1
0.85 | -0.2 | COc1cccc(NC(=O)CN(C)C(=O)CC2CC3CCC2C3)c1 (stereo not given)
0.97 | -0.92 | O=S(=O)(c1ccc(NC(=S)NC2CCCC2)cc1)N1CCCC1
0.43 | 0.09 | O=C(NCc1ccncc1)c1cc(C(=O)C2CC2)c[nH]1
0.59 | -0.85 | CCOC(=O)N1CCN(CC(O)c2ccc3cc[nH]c3c2)CC1 (stereo not given)
0.39 | 2.6 | CC1(C)CC(=O)C=C(Nc2ccc(F)c(Cl)c2)C1
0.95 | -0.5 | c1ccc(-c2oc3ncnc(N4CCOCC4)c3c2-c2ccccc2)cc1
0.6 | -1.3 | CC1CCCCC1NC(=O)CSc1nnc(CN2CCOCC2)n1C (stereo not given)
1.8 | -1.1 | COC(=O)c1c(C(=O)OC)c2cc(C)ccn2c1Cl
0.72 | 1.7 | CCN(CC)CCCN1C=C2C(=O)C(C)(OC(=O)CCC(=O)OC)C(=O)C(Br)=C2C=C1c1ccc(OC)cc1 (stereo not given)
0.82 | -1.7 | C/C(CC(C)C)=N\Oc1nc(C)cc(C)n1
1.5 | -1.4 | O=[N+]([O-])c1ccc(N/N=C/c2cccc(O)c2O)c(S(=O)(=O)N2CCOCC2)c1
2.7 | -0.18 | C=CCn1cccc(C(=O)Nc2ccc(SC)cc2)c1=O
0.05 | 0.01 | CCOc1ccc(NC(=O)CCN2CCN(c3ccccc3OC)CC2)cc1
0.49 | -0.58 | CCCCCSc1nnc(-c2ccccc2N)c(=O)[nH]1
0.01 | -1.2 | O=C(O)c1ncn(Cc2ccccc2)c1C(=O)O
0.03 | 0.38 | Cc1ccc2cccnc2c1N
0.28 | 0.01 | CCOC(=O)c1sc(-c2cccs2)nc1C
1.3 | -0.59 | NC(=O)c1cc2cc(Cl)ccc2oc1=O
1.5 | -1.8 | Cc1nnc(SCC(=O)N2CCCC2)n(N)c1=O
0.1 | -1.3 | CN(C)CCCN1C(=O)C(=O)/C(=C(/O)c2ccncc2)C1c1cccnc1 (stereo not given)
0.05 | 0.29 | O=c1c2c3c(sc2nc2sc(CN4CCCCC4)cn12)CCCC3
0.5 | 0.14 | CC(C)c1ccc(N(C(=O)c2snc(C(N)=O)c2N)C(C(=O)NCC2CCCO2)c2ccc(N(C)C)cc2)cc1 (stereo not given)
3.7 | 0.95 | CC(=O)N1N=C(c2cccc(O)c2)CC1c1cccs1 (stereo not given)
0.93 | 0.05 | CCOC(=O)Cc1cc(=O)[nH]c(/N=C(/NC(=O)c2ccccc2)Nc2ccccc2C(F)(F)F)n1
1 | -0.44 | COc1ccccc1-n1c(SCC(N)=O)nnc1-c1ccc(S(=O)(=O)N2CCCCC2)cc1
1.5 | -0.41 | COc1ccc(-n2nc(C(=O)NCC(=O)Nc3ccccn3)c3ccccc3c2=O)cc1Cl
0.78 | 1.4 | COc1ccc(-n2c(SCC(=O)N3CCCC3)nc3ccccc3c2=O)cc1
0.58 | 1.3 | CCN(C(=O)CSc1nc2n[nH]c(C)c2c(=N)n1-c1ccc(Cl)c(C)c1)c1cccc(C)c1
0.07 | -0.42 | COc1ccccc1CNS(=O)(=O)c1ccc(C)cc1
0.42 | -0.12 | CC(C)CC(=O)Nc1c2c(nn1-c1ccc([N+](=O)[O-])cc1)CS(=O)(=O)C2
4.8 | -0.02 | CC(CN1CCCC1)OC(=O)c1ccccc1Cl (stereo not given)
0.63 | -0.57 | CN1CCN(c2ccc(S(=O)(=O)N3CCCCC3)cc2NC(=O)c2ccc(C#N)cc2)CC1
0.74 | -0.66 | COc1ccc2c(c1)C(=O)CC(c1ccc(OC)c(OC)c1)O2 (stereo not given)
0.63 | -0.94 | CC(C)(C)Cc1nnc(NS(C)(=O)=O)s1
0.43 | -2 | Cc1cc(C(=O)COC(=O)c2ccccc2NCCO)c(C)n1CC1CCCO1 (stereo not given)
0.05 | 1.9 | CCN(c1ccc(NC(=O)CCNC(=O)c2ccco2)cc1)C(C)C
1.6 | -0.5 | Cc1ccccc1Nc1nc(N)nc(COC(=O)CCNS(=O)(=O)c2ccccc2)n1
0.58 | -3.5 | CCOC(=O)c1c(S(=O)(=O)N2CCCC(C)C2)c(C)n(C)c1C (stereo not given)
0.82 | -1.6 | CCOc1ccc(C(=O)NC(=S)NCc2cccnc2)cc1[N+](=O)[O-]
0.5 | 1.3 | CN(C)CC(C)(C)CNC(=S)Nc1cc(S(=O)(=O)N2CCOCC2)ccc1Cl
0.09 | 1.8 | COCCOc1cc(-n2ccnc2SC)c(Cl)cc1Cl
0.95 | -1 | COc1ccccc1NC(=O)c1ccc(NC(=O)CSc2ncccn2)cc1
0.64 | 0.84 | COc1ccc2c(c1OC)C(=O)N(c1ccc(O)cc1)C2=O
0.18 | -2.3 | CCc1ccccc1NC(=O)C1CCCN1S(=O)(=O)c1ccc(-c2ccc(=O)[nH]n2)s1 (stereo not given)
0.09 | 0.29 | CCOc1ccccc1NC(=O)COC(=O)CNS(=O)(=O)c1ccc(C)cc1
0.07 | 1 | CN1CCN(CC(=O)N2c3ccccc3C(C)(c3ccc(Cl)cc3)CC2(C)C)CC1 (stereo not given)

# (listing goes on)
KCNQ2 enhance | KCNQ2 enhance baseline | canonical_smiles
0.21 | -0.37 | Cc1ccc(SCCNC(=O)c2ccc(CN3CCOCC3)cc2)cc1
0.44 | 0.14 | COc1ccccc1NC(=O)c1ccc(C(=O)Nc2ccccc2OC)nc1
0.18 | -0.29 | CC(C)(C)NC(=O)Cn1c(=O)n(CC(=O)NC(C)(C)C)c2ccccc21
0.77 | -0.53 | C=CCn1c(=S)sc2c(=O)[nH]c(C)nc21
0.29 | 1.1 | O=C(CSc1nc(=O)[nH]c2c1CCCC2)Nc1cc(C(F)(F)F)cc(C(F)(F)F)c1
0.63 | -0.08 | COc1ccc(NC(=O)COc2ccc(C)cc2)c([N+](=O)[O-])c1
0.55 | 2.2 | O=C(O)CNCC1COc2ccccc2O1 (stereo not given)
0.61 | -0.25 | O=C1C2CCCN2C(=S)N1C1CCCCC1 (stereo not given)
4.5 | -0.23 | C/C(=N\NC(=O)C1CC1c1ccccc1)c1cccc([N+](=O)[O-])c1 (stereo not given)
0.11 | 1.5 | Cc1cccnc1NC(=O)C(c1ccccc1)c1ccccc1
0.74 | 0.07 | CSc1ncccc1C(=O)Nc1ccncc1
1.5 | -0.89 | Cc1ccc(C)n1Cc1ccccc1Cl
2.5 | -0.79 | c1ccc(Sc2ccccc2CN2CCCC2)cc1
0.28 | -0.26 | Cc1nc([N+](=O)[O-])nn1C12CC3CC(CC(Br)(C3)C1)C2
0.85 | -1.6 | C/C(N)=C(/C#N)C(=O)CSc1nnc(COc2cc(C)ccc2C)o1

# Compound profiles, from the list above. Order of values: KCNQ2 enhance, KCNQ2 enhance baseline
# CC(C)(C)NC(=O)Cn1c(=O)n(CC(=O)NC(C)(C)C)c2ccccc21 is listed with 0.18, -0.29
# COc1ccc(NC(=O)COc2ccc(C)cc2)c([N+](=O)[O-])c1 is listed with 0.63, -0.08
# CSc1ncccc1C(=O)Nc1ccncc1 is listed with 0.74, 0.07
# C/C(N)=C(/C#N)C(=O)CSc1nnc(COc2cc(C)ccc2C)o1 is listed with 0.85, -1.6
# c1ccc(Sc2ccccc2CN2CCCC2)cc1 is listed with 2.5, -0.79

# Further structures.
KCNQ2 enhance | KCNQ2 enhance baseline | canonical_smiles
1.3 | -0.06 | CC(=O)Nc1ccccc1C(=O)N1CC2(C)CC1CC(C)(C)C2 (stereo not given)
0.48 | -1 | CC1CN(C(=O)COC(=O)c2ccc(Cl)c(N)c2)CC(C)O1 (stereo not given)
7.6* | 0.11* | CC(C(=O)N1c2ccc(F)cc2CCC1C)N1C(=O)c2ccccc2C1=O (stereo not given)
0.01 | 3.3 | CCCCn1nc(NC(=O)COC)c2cc3ccc(C)cc3nc21
0.7 | 0.09 | Cc1nonc1NC(=O)OCCN1CCOC1=O
0.16 | 3.4 | CCOC(=O)C1(CCOC)CCN(C(=O)c2sccc2C)CC1
0.36 | -0.17 | CC1=C(C(=O)OCCNC(=O)c2ccccc2O)C(c2ccccc2[N+](=O)[O-])C(C(=O)OCC2CCCO2)=C(C)N1 (stereo not given)
0.03 | -2.4 | COCCNC(=S)N(CCc1c(C)[nH]c2ccc(F)cc12)Cc1ccco1
1.5 | 0 | CCN(CC(=O)Nc1ccc2c(c1)OCCO2)C(=O)c1cc(=O)[nH]c2ccccc12
0.18 | 0.01 | O=C(NC(=S)NNC(=O)c1cccs1)c1ccc(Br)o1
0.25 | 0.04 | COc1ccc(C(O)c2nc3ccccc3n2C(C)C)cc1 (stereo not given)
1.3 | 0.31 | C/C(=N\Nc1ccc([N+](=O)[O-])cc1[N+](=O)[O-])C(C)C(C)C (stereo not given)
0.89 | -0.03 | Cc1noc(C)c1CSCC(=O)Nc1ccc(OC(F)F)c(Cl)c1
0.32 | -0.14 | CCOc1cc(NC(=O)c2cnccn2)c(OCC)cc1NC(=O)c1cccc(F)c1
0.33 | 0.84 | CN1CCN(CC(=O)Nc2cccc([N+](=O)[O-])c2)CC1
0.07 | -0.62 | CNS(=O)(=O)c1ccc(NC(=S)Nc2ccc3c(c2)OCO3)cc1
0.15 | 0.78 | COc1ccc(C2=NN(CCC(=O)NCc3cccs3)C(=O)CC2)cc1
0.49 | -0.41 | OC(COc1ccc2cc(Br)ccc2c1)CN1CCOCC1 (stereo not given)
0.45 | -1.3 | O=C(O)CC(NCc1ccco1)C(=O)OCCCl (stereo not given)
0.96 | 1.6 | O=C(Nc1ccc(F)cc1)c1cc(Cl)sc1Cl
0.08 | 0.35 | CCC(=O)N1CCc2cc(S(=O)(=O)N(CC)c3cccc(C)c3)ccc21
0.08 | 0.78 | CCNc1nc(NCC)nc(Oc2ccc(OCc3ccccc3)nn2)n1
1.2 | 0.28 | CCOc1ccc(/C(C)=N/N2C(=O)C(CC(=O)Nc3ccc(OC)cc3[N+](=O)[O-])SC2=Nc2cccc(C)c2C)cc1 (stereo not given)
0.21 | 0.61 | Cc1ccc(Nc2nc(N)nc(CSC(=S)N3CCOCC3)n2)c(C)c1
1.2 | 0.36 | O=C(Nc1ccc(C(=O)N2CCN(c3ccccc3F)CC2)cc1)C1=CSCCO1
0.6 | -1.6 | COc1ccc(CCc2nnc(CCC(=O)N(C)Cc3ccncc3C)o2)cc1
0.85 | 0.57 | CCCN1CCN(C(=O)CN2C(=O)COc3ccc(S(=O)(=O)N(CC)CC)cc32)CC1
1.7 | 0.14 | O/N=C1\CCCCc2ccccc21
0.12 | 1.7 | O=C(Nc1ccccc1)N(Cc1ccc2c(c1)OCO2)Cc1nc2ccccc2c(=O)[nH]1
0.4 | 0.71 | Cc1ccc(-c2nc3s/c(=C\c4ccco4)c(=O)n3n2)cc1
0.75 | -0.79 | O=C(CCn1nnnc1CN1CCOCC1)N1CCC(c2cccc(Cl)c2)C1 (stereo not given)
2 | 0.74 | Cc1ccc2c(c1)CCCN2C(=O)c1cc2ccccc2oc1=O
0.25 | 0.65 | CC(=O)c1cccc(NC(=O)CN(c2ccc(F)cc2)S(C)(=O)=O)c1
0.89 | 0.06 | C=CCn1c(SCC(=O)NCC)nc2sc3c(c2c1=O)CCC3
2.8 | -0.78 | O=C(Nc1ccccc1)OCc1cnc(Cl)s1
0.33 | -0.52 | COC(=O)c1c(NC(=O)COc2ccc(Cl)cc2Cl)sc2c1CC(C)(C)NC2(C)C
1.6 | 0.03 | NC(=O)c1c(NC(=O)C2CCCO2)sc2c1CCCC2 (stereo not given)
1.8 | -1.6 | O=C(c1cc(-c2cccc(O)c2)on1)N1CCCCCC1
1.3 | -0.87 | CC(=O)Nc1ccccc1C(=O)N1CCN(c2cccc(C)c2C)CC1
0.01 | -0.01 | O=C(NCC1CCCO1)c1cc(-c2ccccc2)nc2ccccc12 (stereo not given)

# Screening data (PubChem BioAssay)
